Screens: PubChem BioAssay, ICCB-Longwood Screening Facility, Harvard Medical School
Mtb MbtI inh = inhibitors of Mycobacterium tuberculosis siderophore enzyme MbtI | AID 493033 | purified MbtI enzyme, fluorescence intensity read-out | inhibition, %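 (about 17 µg/mL by stock and volumes)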 | 0.89% of 100,000 active;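 active = above 50% in both replicates, above 80% if mildly self-fluorescent; inactive = the rest, strongly fluorescent compounds included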;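 note: 0% = mean of negative and 100% = mean of positive controls; one replicate is shown; some compounds called inactive have numbers as strong as hits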
MenB inh = blocks the Mycobacterium tuberculosis MenB enzyme | P9WNP5 | MenB enzyme assay, absorbance read-out; some hits fall short of the stated cut | inhibition, %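 (about 12 µg/mL by stock and volumes)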 | 0.43% of 100,000 active | AID 540299;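 active = mean of two replicates above 30%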;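 note: 0% = no compound and 100% = wells with inactive enzyme; the first replicate is given; strong numbers were not always called active; inactives centre near -10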
Target sequence (P9WNP5 whole entry, looked up): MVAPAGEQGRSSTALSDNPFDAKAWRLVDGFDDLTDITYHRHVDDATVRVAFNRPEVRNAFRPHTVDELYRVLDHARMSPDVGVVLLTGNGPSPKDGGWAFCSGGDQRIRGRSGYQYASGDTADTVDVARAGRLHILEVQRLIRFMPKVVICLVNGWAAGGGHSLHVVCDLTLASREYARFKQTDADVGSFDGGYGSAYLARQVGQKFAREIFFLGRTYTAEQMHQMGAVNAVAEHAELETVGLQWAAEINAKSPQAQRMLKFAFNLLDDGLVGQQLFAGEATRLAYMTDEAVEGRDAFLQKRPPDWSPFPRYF
PV pol inh = poliovirus RNA polymerase inhibition | poliovirus polymerase elongation, fluorescence polarization; stronger effect = lower value | AID 588519 | % elongation, % (compound at 16.7 µg/mL) | 0.66% of 150,000 active | P03300; in the data active = % elongation below about 90%; note: some results filed as inactive read as strong as hits
Target sequence (P03300 1749-2209 limits assumed): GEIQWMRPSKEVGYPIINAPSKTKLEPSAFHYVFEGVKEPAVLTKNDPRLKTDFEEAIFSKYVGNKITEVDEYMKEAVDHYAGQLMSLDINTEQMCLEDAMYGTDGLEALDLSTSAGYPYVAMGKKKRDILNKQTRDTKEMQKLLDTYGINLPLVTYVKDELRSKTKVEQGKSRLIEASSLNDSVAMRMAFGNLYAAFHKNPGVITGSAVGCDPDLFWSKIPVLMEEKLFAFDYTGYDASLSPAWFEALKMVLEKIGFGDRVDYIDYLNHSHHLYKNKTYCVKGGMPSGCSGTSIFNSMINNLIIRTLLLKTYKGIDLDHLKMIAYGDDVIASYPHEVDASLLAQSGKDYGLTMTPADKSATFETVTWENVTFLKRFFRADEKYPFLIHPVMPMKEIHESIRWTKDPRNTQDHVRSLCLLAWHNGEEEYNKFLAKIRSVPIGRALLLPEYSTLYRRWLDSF
PV pol inh intensity = also measured in PV pol inh; calls as there; % elongation; measured here: total intensity read-out; formula for this scale not given here;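 total fluorescence in place of polarization; lower means less elongation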
* hit, by the source's call; x = no result given; & = joins results of further samples.

Key to letters: A = Mtb MbtI inh; B = MenB inh; C = PV pol inh; D = PV pol inh intensity
> CCCn1c(=O)n(C)c(=O)c2c(SCC(=O)/C(C#N)=C(\C)N)nc(CC(C)C)nc21
  A: -4; B: -17; C: 102; D: 99
> O=C(O)C(F)(F)C(NCc1ccccc1)c1ccccc1 (configuration not stated)
  A: -8; B: x; C: 102; D: 97
> Cc1ccc2c(Cl)cc(Cl)c(OCC(=O)N3CCc4ccccc43)c2n1
  A: 1; B: x; C: 100; D: 98
> CN(C)c1ccc(C(C#N)=C(C#N)C#N)cc1
  A: -2; B: x; C: 99; D: 98
> Cc1cc(C)c(C)c(OCC(=O)N(Cc2nc(-c3ccccc3)no2)C2CCCCC2)c1
  A: -9; B: -22; C: 103; D: 103
> O=c1cccc2n1C[C@H]1CNCC2C1
  A: 6; B: 0; C: 98; D: 101
> c1ccc(CNc2nc(NC3CCCCC3)nc(N3CCOCC3)n2)cc1
  A: x; B: -4; C: 99; D: 107
> Clc1nc(Cl)nc(Nc2ccccc2)n1
  A: x; B: -3; C: 87*; D: 80*
> CSc1nnc(C2CCCN2)n1C (configuration not stated)
  A: 5; B: 12; C: 100; D: 104
> CC(C)N1CCNCC1
  A: -13; B: -7; C: 102; D: 102
> O=C(Cc1ccccc1)NCc1ccc(F)cc1
  A: -4; B: -10; C: 98; D: 101
> O=C1c2ccccc2C(=O)C1c1cc(=O)[nH]c2c1ccc1ccccc12
  A: 9; B: -4; C: 101; D: 93
> CC(C)CCN1C(=O)c2ccc(C(=O)C(C#N)c3ccccn3)cc2C1=O (configuration not stated)
  A: 12; B: -1; C: 99; D: 104
> CC1=C(C)N(c2ccccc2)NC(=S)S1
  A: x; B: -13; C: 103; D: 109
> C=C1[C@@H](C)[C@H]2[C@H](Cc3ccccc3)NC(=O)[C@]23OC(=O)/C=C/[C@H](O)CCC[C@@H](C)C/C=C/[C@H]3[C@@H]1O
  A: -12; B: -10; C: 104&104; D: 97&97

Exported field by field: entries from further up.
Structure: Cc1cc(C)c(C)c(OCC(=O)N(Cc2nc(-c3ccccc3)no2)C2CCCCC2)c1
  Mtb MbtI inh = -9
  MenB inh = -22
  PV pol inh = 103
  PV pol inh intensity = 103

Structure: O=c1cccc2n1C[C@H]1CNCC2C1
  Mtb MbtI inh = 6
  MenB inh = 0
  PV pol inh = 98
  PV pol inh intensity = 101

The listing picks up; the 6 compounds before the break are reprinted first.
Key to letters: A = Mtb MbtI inh; B = MenB inh; C = PV pol inh; D = PV pol inh intensity
> CC(C)N1CCNCC1
  A: -13; B: -7; C: 102; D: 102
> O=C(Cc1ccccc1)NCc1ccc(F)cc1
  A: -4; B: -10; C: 98; D: 101
> O=C1c2ccccc2C(=O)C1c1cc(=O)[nH]c2c1ccc1ccccc12
  A: 9; B: -4; C: 101; D: 93
> CC(C)CCN1C(=O)c2ccc(C(=O)C(C#N)c3ccccn3)cc2C1=O (configuration not stated)
  A: 12; B: -1; C: 99; D: 104
> CC1=C(C)N(c2ccccc2)NC(=S)S1
  A: x; B: -13; C: 103; D: 109
> C=C1[C@@H](C)[C@H]2[C@H](Cc3ccccc3)NC(=O)[C@]23OC(=O)/C=C/[C@H](O)CCC[C@@H](C)C/C=C/[C@H]3[C@@H]1O
  A: -12; B: -10; C: 104&104; D: 97&97
> NNC(=O)c1cc2sccc2s1
  A: 12; B: -9; C: 107; D: 112
> O=c1[nH]c(O)c(C=NCc2ccc3c(c2)OCO3)c(=O)[nH]1
  A: 15; B: 0; C: 101; D: 101
> O=C(CNC(=O)c1cccs1)c1ccccc1
  A: -12; B: x; C: 102; D: 104
> Cc1ccc(-n2cc(-c3ccccc3)c3c(=O)[nH]cnc32)cc1
  A: 9; B: -21; C: 103; D: 103
> O=S(=O)(c1c(F)cccc1F)N1CCN(Cc2c(O)ccc3ccccc23)CC1
  A: -16; B: -20; C: 105; D: 107
> CO[C@@H]1C=C2CCN(C)[C@@H]2C2c3cc4c(cc3C(=O)OC21)OCO4 (some centres not stated)
  A: 139; B: 0; C: 99; D: 100
> Cc1ccc(NC(=O)C2CC(=O)N(Cc3ccccc3)C(=Nc3ccccc3)S2)c(C)c1 (configuration not stated)
  A: x; B: -11; C: 98; D: 98
> Cn1c(C(=O)NCc2ccccn2)cc2c(=O)n(C)c3ccccc3c21
  A: 48; B: 0; C: 101; D: 103
> Nc1nnnn1/N=C/c1cccc(Br)c1
  A: 1; B: -29; C: 102; D: 105
> Cc1cc(C)nc(NS(=O)(=O)c2ccc(NS(=O)(=O)CC34CCC(CC3=O)C4(C)C)cc2)n1 (configuration not stated)
  A: 0; B: -1; C: 112; D: 96
> CN(C)c1ccc(/C=C/C=N/N=c2/sc3ccccc3n2C)cc1
  A: -5; B: -7; C: 101; D: 126
> CN(C(=O)CSc1ccccc1C(=O)O)c1ccccc1
  A: x; B: -20; C: 104; D: 108
> COC(=O)c1cc(S(=O)(=O)NC2CCCC2)cn1C
  A: -1; B: -23; C: 108; D: 99
> Cc1nc(-c2cc(C#N)c(SCCC(=O)OC(C)(C)C)nc2C)cs1
  A: -3; B: -37; C: 103; D: 108
> Cn1c(-c2ccccc2)c(C(=O)COC(=O)c2ccc(C#N)cc2)c2ccccc21
  A: -20; B: -15; C: 107; D: 101
> CCc1nn(CC(=O)NCCc2c[nH]c3ccccc23)c(=O)c2cc3occc3n12
  A: -8; B: 2; C: 101; D: 103
> O=C(Cn1c(S(=O)(=O)Cc2ccccc2)nc2ccccc21)NC1CC1
  A: -14; B: -8; C: 101; D: 103
> Cc1cc2c(cc1S(=O)(=O)N1CCOc3ccccc31)n(C)c(=O)n2C
  A: -8; B: -13; C: 101; D: 100
> CC(=O)Nc1ccc(S(=O)(=O)NCc2ccc(C(=O)NCCN3CCCCCC3)cc2)cc1
  A: -5; B: 6; C: 103; D: 98
> O=c1c(-c2ccccc2Cl)coc2cc(O)ccc12
  A: 112; B: 12; C: 103; D: 103
> CN(C)c1ccc(C=Nc2ccccc2)cc1
  A: 14; B: -32; C: 102; D: 94
> CC(C)C(=O)N1CCCSC1=Nc1ccccc1
  A: -4; B: 3; C: 109; D: 105
> CN(Cc1ccccc1)c1ncnc2onc(-c3cccc(Cl)c3)c12
  A: 0; B: -6; C: 101; D: 104
> COC(=O)Nc1cccc(Cl)c1
  A: -9; B: x; C: 102; D: 108
> CCn1c(SC)nc2c(c1=O)C1(CCCC1)Cc1ccccc1-2
  A: -1; B: -8; C: 101; D: 104
> FC(F)(F)c1cc(-c2ccccc2)n2c(n1)nc1ccccc12
  A: -210; B: -2; C: 103; D: 107
> O=C(CC(c1ccccc1)c1ccccc1)NCC1COc2ccccc2O1 (configuration not stated)
  A: x; B: -29; C: 105; D: 105
> COc1ccc(C(=O)N/N=c2/c(=O)c(=O)c3ccccc23)cc1
  A: -6; B: -25; C: 52*; D: 66*
> O=C(COc1ccc(S(=O)(=O)N2CCOCC2)cc1Cl)N1CCOCC1
  A: 4; B: -1; C: 103; D: 103
> COc1cc(CCNC(=O)c2cnn3ccccc23)cc(OC)c1OC
  A: 112; B: -2; C: 103; D: 103
> Cc1ccccc1NC(=O)COC(=O)c1ccccc1C(=O)c1ccccc1
  A: -14; B: x; C: 102; D: 106
> FC(F)(F)c1cc(C(F)(F)F)n2[nH]c(=S)nc2n1
  A: 96*; B: -103; C: 98; D: 99
> COc1cc2c(cc1NC(=O)C(C)NCCc1ccc(F)cc1)oc1ccccc12 (configuration not stated)
  A: 134; B: -29; C: 103; D: 106
> O=C(C[n+]1ccccc1)Nc1ccccc1C(=O)O
  A: -9; B: -8; C: 106; D: 109
> Cc1cc(OCC(=O)N(C(C)C)C(C)C)cc(C)c1Br
  A: 7; B: -16; C: 103; D: 99
> C/C(=N\N=C(/N)SC1CC(=O)N(C)C1=O)c1ccc(F)cc1 (configuration not stated)
  A: 32; B: 3; C: 99; D: 97
> Cc1ccc(NC(=O)CSC2CCS(=O)(=O)C2)cc1Cl (configuration not stated)
  A: 7; B: -30; C: 106; D: 100
> C=CCc1cccc2cc(NC(C)=O)c(=O)oc12
  A: -88; B: -27; C: 102; D: 101
> O=C(c1ccco1)N(Cc1ccccc1)Cc1ccccc1
  A: 4; B: -38; C: 103; D: 100
> O=C(Cn1ncc2c([nH]c3ccccc32)c1=O)NCC1CCN(Cc2ccccc2F)CC1
  A: 12; B: 12; C: 102; D: 104
> CC1CCCCN1CCCNC(=O)c1ccc(Br)cc1 (configuration not stated)
  A: -16; B: -16; C: 112; D: 116
> CCc1cccc2c1=NC(=O)C=2c1sc(N)nc1O
  A: 2; B: -43; C: 104; D: 102
> CC1(C)C(=O)Nc2ccccc2N1C(=O)CSc1nnc(COc2ccccc2Cl)o1
  A: 7; B: -24; C: 103; D: 101
> O=c1[nH]c2ccc(S(=O)(=O)Nc3ccccc3)cc2o1
  A: 7; B: 19; C: 104; D: 107
> CC1CCCCN1C(=O)CN1CCN(C)CC1 (configuration not stated)
  A: -11; B: -34; C: 104; D: 101
> CC(C)N(C(=O)Cn1cc(S(=O)(=O)CC(N)=O)c2ccccc21)C(C)C
  A: -7; B: -13; C: 102; D: 109
> CCc1cc2c(=O)n(Cc3ccccc3)c(SCc3c(C)noc3C)nc2s1
  A: -11; B: -45; C: 104; D: 108
> CCc1nn(C(C)C(=O)NC)c(=O)c2cc3occc3n12 (configuration not stated)
  A: 15; B: -55; C: 106; D: 109
> CCOC(=O)c1c(NC(C)=O)sc2c1CCCNC2=O
  A: x; B: -13; C: 103; D: 105
> Cc1ccc(-c2cc(C(F)(F)F)n3nc(C(=O)N(C)Cc4ccccc4)cc3n2)cc1
  A: x; B: -7; C: 103; D: 106
> Cn1cnnc1SCC(=O)N1CC2(C)CC1CC(C)(C)C2 (configuration not stated)
  A: -8; B: x; C: 104; D: 107
> N#CC(C(=O)Nc1ccccc1)=C1Nc2ccccc2N1
  A: 13; B: 13; C: 102; D: 103
> CCOc1ccc(C(=O)n2cnc3cc(C)c(C)cc32)cc1
  A: -4; B: -13; C: 102; D: 105
> CCN1CCN(CC(=O)c2ccccc2Br)CC1
  A: -14; B: -5; C: 94; D: 92
> CC(C)CNc1cc(N2CCCC2)c2noc3c2c1C(=O)c1ccccc1-3
  A: -6; B: 3; C: 108; D: 121
> COc1cccc(/C=C2/C(=O)NN(c3ccccc3)C2=O)c1
  A: 59; B: -34; C: 102; D: 106
> Cc1ccc(CSCC(=O)Nc2ccc3c(c2)OCO3)cc1
  A: 3; B: -2; C: 101; D: 99
> COc1nc2c(c(-c3ccco3)c1C#N)Cc1ccccc1-2
  A: -27; B: -21; C: 101; D: 111
> CC1CCCCC1NC(=O)c1cc2cccnc2n(Cc2ccccc2)c1=O (configuration not stated)
  A: 22; B: -30; C: 103; D: 108
> CCOC(=O)c1sc(Nc2nc3ccc(OC)cc3s2)cc1C
  A: 104; B: -30; C: 103; D: 110

Continued.
Key to letters: A = Mtb MbtI inh; B = MenB inh; C = PV pol inh; D = PV pol inh intensity
> O=C(NCCc1ccc(Cl)cc1)c1ccco1
  A: 0; B: -9; C: 103; D: 99
> N=c1c2c(-c3ccccc3)c(-c3ccccc3)n(Cc3ccco3)c2ncn1CCO
  A: -17; B: 38; C: 104; D: 104
> CCN1CCN(C(=O)C2CCCCC2C(=O)O)CC1 (configuration not stated)
  A: -11; B: -28; C: x; D: x
> CCC1SC(CC)C(=O)N(CC(=O)Nc2cccc(C)c2)C1=O (configuration not stated)
  A: -1; B: -36; C: 100; D: 101
> CC(N)c1ccco1 (configuration not stated)
  A: 19; B: 9; C: 107; D: 99
> CC(C)C(NC(=O)C12CC3CC(CC(C3)C1)C2)C(=O)NC1=NCCS1 (configuration not stated)
  A: -1; B: -9; C: 105; D: 102
> CCC(C)NC(=O)CCc1nc2ccccc2n1-c1ccccc1 (configuration not stated)
  A: -9; B: -17; C: 98; D: 104
